Bioassay records as filed in PubChem.
c-Myc SMM: binders of human c-Myc, primary screen, biochemical, small molecule microarray, anti-His fluorescence; His-c-Myc binding; hit rate 1.5% among 17,000; calls only; Myc proto-oncogene protein (Homo sapiens), P01106;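 active = spot fluorescence over background with P-value below 7% in all four replicate spots, showing protein binding; compounds were printed on slides so no solution concentration is given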;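 note: score is binary with 100 for all four spots passing and 0 otherwise; about 2 pmol printed per array spot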
mut p53 SMM: binders of human mutant p53, primary screen, biochemical, small molecule microarray, anti-GST fluorescence; mutant tumor protein p53 (GST-tagged), Homo sapiens; small molecule microarray binding; calls only; hit rate 0.4% among 17,000; AID 624136, 2012;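 active = compounds whose four printed spots each glow above background more than chance allows, each with a p-value under 7%; compounds were printed on slides so no solution concentration is given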;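 note: about 2 pmol printed per array spot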
ID4 binder: binders of human ID4 protein, primary screen, biochemical, small molecule microarray, single point; DNA-binding protein inhibitor ID-4 (Homo sapiens), P47928; Flag-ID4 binding, fluorescence F/B; calls only; hit rate 1.2% among 31,000; AID 624137, 2012;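 active = spot signal over background at p below 0.07 in all four prints; compounds were printed on slides so no solution concentration is given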;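 note: a binder raises fluorescence above local background on the spot; about 2 pmol printed per array spot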
Target sequence (P47928 whole entry, looked up): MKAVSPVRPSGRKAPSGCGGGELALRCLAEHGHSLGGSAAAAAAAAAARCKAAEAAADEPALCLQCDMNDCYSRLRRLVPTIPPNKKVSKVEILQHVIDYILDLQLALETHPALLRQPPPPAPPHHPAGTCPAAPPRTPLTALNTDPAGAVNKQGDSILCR
STAT3 binder: STAT3 binders, primary screen, biochemical, small molecule microarray, single point, set 2. His-STAT3 binding, anti-His fluorescence. Signal transducer and activator of transcription 3 (Homo sapiens), P40763. hit rate 0.2% among 17,000. calls only;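 active = compounds whose four printed spots each show fluorescence over background unusually high for their array block, chance value under 7%; compounds were printed on slides so no solution concentration is given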;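 note: about 2 pmol printed per array spot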
Target sequence (P40763 whole entry, looked up): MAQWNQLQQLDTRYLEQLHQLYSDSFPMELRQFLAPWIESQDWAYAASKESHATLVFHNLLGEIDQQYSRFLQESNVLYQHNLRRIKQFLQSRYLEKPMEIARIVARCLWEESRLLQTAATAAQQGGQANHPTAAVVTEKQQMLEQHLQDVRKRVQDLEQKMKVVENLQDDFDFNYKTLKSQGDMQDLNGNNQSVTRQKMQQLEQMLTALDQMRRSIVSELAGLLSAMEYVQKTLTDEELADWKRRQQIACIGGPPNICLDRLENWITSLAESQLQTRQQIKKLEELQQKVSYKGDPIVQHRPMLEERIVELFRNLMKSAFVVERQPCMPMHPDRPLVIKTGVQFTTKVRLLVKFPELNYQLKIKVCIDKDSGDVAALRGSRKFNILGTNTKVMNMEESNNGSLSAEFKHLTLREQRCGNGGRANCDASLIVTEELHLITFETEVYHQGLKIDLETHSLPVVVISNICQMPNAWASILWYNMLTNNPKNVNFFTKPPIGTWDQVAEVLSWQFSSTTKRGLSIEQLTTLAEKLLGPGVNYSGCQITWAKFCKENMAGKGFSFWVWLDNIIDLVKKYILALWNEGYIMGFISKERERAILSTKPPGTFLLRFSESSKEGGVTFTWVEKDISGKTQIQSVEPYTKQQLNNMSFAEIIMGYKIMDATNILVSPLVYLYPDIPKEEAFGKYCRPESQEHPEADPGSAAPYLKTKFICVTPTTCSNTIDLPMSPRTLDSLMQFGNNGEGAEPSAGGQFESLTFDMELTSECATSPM
Calls only; i = inactive; . = no result given; + = active, no number. An excerpt (hit frequency here may not be typical).

Start of the data: the first 2 compounds, ahead of the listing:
SMILES	c-Myc SMM	mut p53 SMM	ID4 binder	STAT3 binder
CNC[C@@H]1OCCCC[C@H](C)Oc2ccc(NS(=O)(=O)c3ccc(OC)cc3)cc2C(=O)N([C@@H](C)CO)C[C@@H]1C	i	i	.	i
C[C@@H]1CN([C@@H](C)CO)C(=O)c2cccc(NC(=O)NC3CCCCC3)c2O[C@@H]1CN(C)C(=O)Nc1cccc2ccccc12	i	i	i	i

All compounds of this part (from the top)
SMILES	c-Myc SMM	mut p53 SMM	ID4 binder	STAT3 binder
CNC[C@@H]1OCCCC[C@H](C)Oc2ccc(NS(=O)(=O)c3ccc(OC)cc3)cc2C(=O)N([C@@H](C)CO)C[C@@H]1C	i	i	.	i
C[C@@H]1CN([C@@H](C)CO)C(=O)c2cccc(NC(=O)NC3CCCCC3)c2O[C@@H]1CN(C)C(=O)Nc1cccc2ccccc12	i	i	i	i
C[C@@H]1CN([C@@H](C)CO)C(=O)Cc2cc(NS(=O)(=O)c3cn(C)cn3)ccc2O[C@@H]1CN(C)Cc1ccccc1	i	i	i	i
C[C@H](CO)N1C[C@H](C)[C@@H](CN(C)C(=O)NC2CCCCC2)Oc2ccc(NC(=O)Nc3cccc4ccccc34)cc2C1=O	i	i	i	i
CC(=O)OCC(=O)[C@@]12OC3(CCCC3)O[C@@H]1CC1C3CCC4=CC(=O)C=C[C@]4(C)[C@@]3(F)[C@@H](O)C[C@@]12C (stereo partly specified)	i	i	i	i
C[C@@H]1CN([C@@H](C)CO)C(=O)c2cccc(N(C)C)c2O[C@@H]1CN(C)C(=O)NC1CCCCC1	i	i	i	i
Cc1ccc(C(=O)CC2(O)C(=O)N(CCCC#N)c3ccccc32)o1 (stereo unspecified)	i	i	i	i
COc1cc2c(cc1OC)C1(Cc3ccc4c(c3C1O)OCO4)N(C)CC2 (stereo unspecified)	i	i	.	i
C[C@@H]1CCCCO[C@@H](CN(C)S(=O)(=O)c2ccccc2)[C@@H](C)CN([C@@H](C)CO)C(=O)c2cc(NC(=O)CCC(F)(F)F)ccc2O1	i	i	i	i
O=C(CSc1nc(N2CCCCC2)nc(N2CCCCC2)n1)Nc1ccc(F)cc1	i	i	i	i
C[C@@H]1CN([C@H](C)CO)C(=O)Cc2cc(NC(=O)c3ccncc3)ccc2O[C@@H]1CN(C)C(=O)Nc1cccc2ccccc12	i	i	i	i
O=C(CCSc1nc2ccccc2o1)N1CCOCC1	i	i	i	i
COc1ccc(CN(C)C[C@H]2Oc3ccc(NC(=O)Nc4c(C)noc4C)cc3CC(=O)N([C@H](C)CO)C[C@H]2C)cc1	i	i	i	i
Cc1noc(C)c1NC(=O)Nc1ccc2c(c1)CC(=O)N([C@@H](C)CO)C[C@@H](C)[C@H](CN(C)S(=O)(=O)c1cccs1)O2	i	i	i	i
Cc1noc(C)c1S(=O)(=O)N(C)C[C@@H]1Oc2ccc(NC(=O)NC(C)C)cc2CC(=O)N([C@@H](C)CO)C[C@H]1C	i	i	i	i
C[C@@H]1CN([C@@H](C)CO)C(=O)c2cc(NS(=O)(=O)c3cn(C)cn3)ccc2O[C@H]1CN(C)C(=O)Nc1ccc(F)cc1	i	i	i	i
C[C@@H]1CN([C@H](C)CO)C(=O)CCCn2cc(nn2)CO[C@@H]1CN(C)C(=O)CCC(F)(F)F	i	i	i	i
C[C@H](CO)N1C[C@H](C)[C@H](CN(C)C(=O)NC2CCCCC2)Oc2ncc(/C=C/c3ccccc3)cc2C1=O	i	i	.	i
CC(C)NC(=O)[C@@]1(C)c2ccccc2C(=O)N(Cc2ccccc2)[C@H]1c1ccc(CO)cc1	i	i	i	i
C[C@@H]1CN([C@@H](C)CO)C(=O)c2cc(NC(=O)C3CC3)ccc2O[C@H]1CN(C)Cc1ccc(C(F)(F)F)cc1	i	i	i	i
C[C@H]1CN([C@@H](C)CO)C(=O)c2cccc(NS(=O)(=O)c3ccccc3)c2O[C@H]1CN(C)Cc1ccc(Cl)c(Cl)c1	i	i	.	i
C#Cc1ccc([C@H]2C=C(C(=O)NCc3ccccc3)O[C@@H](OCC)[C@@H]2CCCO)cc1	i	i	i	i
COc1ccc(S(=O)(=O)Nc2cccc3c2O[C@H](CN(C)S(=O)(=O)c2cn(C)cn2)[C@@H](C)CN([C@H](C)CO)C3=O)cc1	i	i	i	i
Cc1noc(C)c1S(=O)(=O)N(C)C[C@H]1OCCCC[C@H](C)Oc2ccc(NC(=O)CCC(F)(F)F)cc2C(=O)N([C@@H](C)CO)C[C@@H]1C	i	i	.	i
CC(C)NC(=O)Nc1cccc2c1O[C@H](CN(C)Cc1ccc(C(F)(F)F)cc1)[C@H](C)CN([C@@H](C)CO)C2=O	i	i	i	i
SMILES	c-Myc SMM	mut p53 SMM	ID4 binder	STAT3 binder
C[C@@H]1CN([C@@H](C)CO)C(=O)c2cc(NS(C)(=O)=O)ccc2O[C@@H](C)CCCCO[C@@H]1CN(C)C(=O)Cc1ccccc1	i	i	i	i
C[C@H](CO)N1C[C@H](C)[C@H](CN(C)C(=O)Nc2ccc(F)cc2)Oc2ccc(NC(=O)Cc3ccccc3)cc2CC1=O	i	i	i	i
O=C(CSc1n[nH]c(-c2ccco2)n1)N1c2ccccc2Sc2ccccc21	i	i	i	i
Cc1noc(C)c1NC(=O)Nc1cccc2c1O[C@H](CN(C)S(=O)(=O)c1ccc(Cl)cc1)[C@@H](C)CN([C@@H](C)CO)C2=O	i	i	i	i
C[C@H]1CN([C@@H](C)CO)C(=O)Cc2cc(NC(=O)Cc3ccccc3)ccc2O[C@@H]1CN(C)C(=O)NC1CCCCC1	i	i	i	i
COC(=O)[C@H](Cc1ccccc1)N1CC(C)(OC)O[C@@H](Cc2ccccc2)[C@H]1/C=C/C1CC1 (stereo partly specified)	i	i	i	i
COc1ccc(NC(=O)Nc2ccc3c(c2)C(=O)N([C@@H](C)CO)C[C@H](C)[C@H](CN(C)S(=O)(=O)c2cn(C)cn2)O3)cc1	i	i	i	i
Cc1ccc(S(=O)(=O)N(C)C[C@H]2OCCCC[C@H](C)Oc3ccc(NS(=O)(=O)c4c(C)noc4C)cc3C(=O)N([C@@H](C)CO)C[C@@H]2C)cc1	i	i	.	i
OCC1OC(Oc2cc(O)cc(/C=C/c3ccccc3)c2)C(O)C(O)C1O (stereo unspecified)	i	i	i	i
Cc1ccc(S(=O)(=O)N(C)C[C@@H]2Oc3ccc(NS(=O)(=O)c4cccs4)cc3C(=O)N([C@@H](C)CO)C[C@@H]2C)cc1	i	i	.	i
COc1ccc(OC)c(S(=O)(=O)ON2C(=O)c3ccccc3C2=O)c1	+	i	i	i
C[C@H]1CN([C@@H](C)CO)C(=O)c2cc(NC(=O)NC3CCCCC3)ccc2O[C@H]1CN(C)Cc1ccncc1	i	i	i	i
C[C@H](CO)N1C[C@H](C)[C@H](CN(C)C(=O)Nc2ccc3c(c2)OCO3)Oc2c(NC(=O)NC3CCCCC3)cccc2C1=O	i	i	i	i
C[C@@H]1CN([C@H](C)CO)C(=O)CCCn2cc(nn2)CO[C@@H]1CN(C)C(=O)Nc1cccc(Oc2ccccn2)c1	i	i	i	i
C[C@@H]1CN([C@H](C)CO)C(=O)c2cc(NC(=O)Nc3ccc(F)cc3)ccc2O[C@@H]1CN(C)C(=O)NC1CCCCC1	i	i	i	i
COc1cccc2c1C(=O)c1c(O)c3c(c(O)c1C2=O)CC(O)(C(=O)CO)CC3OC1CC(N)C(O)C(C)O1 (stereo unspecified)	i	i	.	i
C[C@H](CO)N1C[C@H](C)[C@@H](CN(C)C(=O)Nc2ccccc2)Oc2ccc(NC(=O)NC3CCCCC3)cc2C1=O	i	i	i	i
COc1ccc(S(=O)(=O)Nc2ccc3c(c2)C(=O)N([C@@H](C)CO)C[C@H](C)[C@@H](CN(C)C(=O)Nc2ccc(C(F)(F)F)cc2)O3)cc1	i	i	.	i
C[C@@H]1CN([C@H](C)CO)C(=O)c2cccc(NS(=O)(=O)c3ccc(Cl)cc3)c2O[C@H]1CN(C)C(=O)Nc1ccc(C(F)(F)F)cc1	i	i	i	i
C[C@H]1CN([C@@H](C)CO)C(=O)Cc2cc(NC(=O)NC3CCCCC3)ccc2O[C@@H]1CN(C)Cc1ccc2c(c1)OCO2	i	i	i	i
Cc1noc(C)c1NC(=O)N(C)C[C@@H]1Oc2c(cccc2N(C)C)C(=O)N([C@H](C)CO)C[C@@H]1C	i	i	i	i
C=CCOC(=O)[C@H]1[C@@H]2C(=O)O[C@@H](c3ccccc3)[C@@H](c3ccccc3)N2[C@@H](c2ccc(OCCOC(=O)[C@H]3C[C@H]4C(=O)N5CCC[C@H]5C(=O)N4[C@H]3c3ccc(O)cc3)cc2)[C@]12C(=O)Nc1ccccc12	i	i	i	i
C[C@H]1CN([C@@H](C)CO)C(=O)c2cc(NS(=O)(=O)c3cccs3)ccc2O[C@H]1CN(C)C(=O)NC1CCCCC1	i	i	i	i
COc1ccc(S(=O)(=O)N(C)C[C@@H]2Oc3c(NC(=O)Nc4c(C)noc4C)cccc3C(=O)N([C@H](C)CO)C[C@@H]2C)cc1	i	i	i	i
C[C@H]1CCCCO[C@H](CN(C)S(=O)(=O)c2cn(C)cn2)[C@@H](C)CN([C@@H](C)CO)C(=O)c2cc(NS(=O)(=O)c3cn(C)cn3)ccc2O1	i	i	i	i
SMILES	c-Myc SMM	mut p53 SMM	ID4 binder	STAT3 binder
C[C@H](CO)N1C[C@H](C)[C@@H](CN(C)S(=O)(=O)c2cn(C)cn2)Oc2ccc(NC(=O)Cc3cn(C)c4ccccc34)cc2CC1=O	i	i	i	i
CCn1c(SCC(=O)Nc2ccc(C(C)=O)cc2)nc2nc3c(cc2c1=O)CCCC3	i	i	i	i
COc1ccc(CN(C)C[C@H]2Oc3c(NC(=O)C4CCOCC4)cccc3C(=O)N([C@H](C)CO)C[C@@H]2C)cc1	i	i	i	i
CC(C)NC(=O)Nc1ccc2c(c1)C(=O)N([C@H](C)CO)C[C@@H](C)[C@H](CN(C)S(=O)(=O)c1ccccc1)OCCCC[C@@H](C)O2	i	i	i	i
CCC(C)[C@@H](CO[C@@H](Cc1ccccc1)C(=O)N[C@@H](CCS(C)(=O)=O)C(=O)OC(C)C)NC[C@@H](N)CS (stereo partly specified)	i	i	i	i
C[C@@H]1CN([C@@H](C)CO)C(=O)c2cc(NC(=O)c3ccncc3)ccc2O[C@@H](C)CCCCO[C@H]1CN(C)C	i	i	i	i
C[C@@H]1CN([C@@H](C)CO)C(=O)c2cc(NS(=O)(=O)c3ccccc3)ccc2O[C@@H](C)CCCCO[C@@H]1CN(C)C(=O)Nc1ccccc1	i	i	i	i
CC(C)NC(=O)Nc1cccc2c1O[C@@H](CN(C)Cc1ccc(C(F)(F)F)cc1)[C@@H](C)CN([C@@H](C)CO)C2=O	i	i	i	i
C[C@H](CO)N1C[C@H](C)[C@@H](CN(C)S(=O)(=O)c2cccs2)OCCCC[C@H](C)Oc2ccc(NS(=O)(=O)c3ccc(F)cc3)cc2C1=O	i	i	.	i
CC(C)NC(=O)Nc1ccc2c(c1)C(=O)N([C@H](C)CO)C[C@H](C)[C@@H](CN(C)Cc1ccccc1)OCCCC[C@@H](C)O2	i	i	i	i
C[C@H]1CN([C@@H](C)CO)C(=O)c2cc(NC(=O)Nc3ccc(F)cc3)ccc2O[C@@H]1CN(C)CC1CCCCC1	i	i	.	i
COC1=CC(=O)O/C1=C(/OC)[C@@H]1O[C@H]1c1ccccc1	i	i	i	i
COc1ccc(C(NC(C)=O)c2ccc3cccnc3c2O)cc1OC (stereo unspecified)	i	i	i	i
CC(C)c1ccccc1OCC(=O)Nc1sc2c(c1C(N)=O)CCCC2	i	i	i	i
COc1ccc(CNC(=O)Nc2ncc([N+](=O)[O-])s2)cc1	i	i	.	i
COc1cc2c(cc1OC)CN(C(=O)[C@H]1[C@@H]3C(=O)O[C@@H](c4ccccc4)[C@@H](c4ccccc4)N3[C@@H](c3ccccc3OCCO)[C@]13C(=O)Nc1ccc(C#CCCO)cc13)CC2	i	i	.	i
C[C@@H]1CN([C@@H](C)CO)C(=O)c2cc(N(C)C)ccc2O[C@H]1CN(C)S(=O)(=O)c1cccs1	i	i	i	i
C[C@@H]1CN([C@@H](C)CO)C(=O)Cc2cc(NS(=O)(=O)c3cccs3)ccc2O[C@@H]1CN(C)C(=O)Nc1ccc2c(c1)OCO2	i	i	i	i
C[C@H]1CN([C@@H](C)CO)C(=O)Cc2cc(NC(=O)c3ccncc3)ccc2O[C@H]1CN(C)S(=O)(=O)c1ccccc1	i	i	i	i
CC1OC(=O)CC2C(C(=O)O)=CC3CC(C)(C)CC312 (stereo unspecified)	i	i	i	i
Cc1noc(C)c1S(=O)(=O)N(C)C[C@@H]1Oc2c(NC(=O)C3CCOCC3)cccc2C(=O)N([C@H](C)CO)C[C@@H]1C	i	i	i	i

Ordered by formula weight (highest first): 3 of the compounds above.
SMILES	c-Myc SMM	mut p53 SMM	ID4 binder	STAT3 binder
C[C@@H]1CN([C@@H](C)CO)C(=O)Cc2cc(NS(=O)(=O)c3cccs3)ccc2O[C@@H]1CN(C)C(=O)Nc1ccc2c(c1)OCO2	i	i	i	i
C[C@H]1CN([C@@H](C)CO)C(=O)c2cc(NC(=O)Nc3ccc(F)cc3)ccc2O[C@@H]1CN(C)CC1CCCCC1	i	i	.	i
COC1=CC(=O)O/C1=C(/OC)[C@@H]1O[C@H]1c1ccccc1	i	i	i	i
